# ATXN2 expr inh – inhibitors of ATXN2 expression; AID 1745845; HEK-293 ATXN2-luciferase reporter, luminescence, 24 h; 360,000 tested, 0.72% active; Potency, µM (top dose mostly 57 µM), inactives show at the top dose activity change, negative = inhibition, hits mostly inhibitors; also: potency is read from the fitted curve at half-maximal effect; % is scaled to controls: 0 for no effect and ±100 for the full control effect; nearly all actives have a fitted effect of over 55% in size
#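 ATXN2-luciferase reporter cells (luciferase flanked by upstream and downstream ATXN2 gene portions) were treated 24 h at 37 °C with compounds at up to 57 uM. SteadyGlo luminescence gave expression; GF-AFC fluorescence gave viability.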
# KB-V1 MDR tox – KB-V1 MDR subline cytotoxicity. KB-V1 MDR cells viability, CellTiter-Glo, 72 h. Potency, µM (titrated, usually from 46.1 µM), without a hit: at the top dose activity change, negative = cytotoxicity, usual class: cytotoxic. 400,000 tested, 3.4% active; also: potency is read from the fitted curve at half-maximal effect; % is scaled to controls: 0 for no effect and ±100 for the full control effect; nearly all actives have a fitted effect of over 60% in size
#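 qHTS viability screen in drug-selected KB-V1 MDR cells: 72 h compound treatment at 37 degrees C, ATP luminescence end point.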
# IL1B secr inh – inflammasome signaling inhibition, IL-1 beta readout; THP-1 LPS/ATP IL-1B secretion, AlphaLISA, 16 h; stronger effect = lower value; activity change, % at 57.5 µM; 360,000 tested, 4.7% active; AID 743279; in the data active = activity change below about -50%; inconclusive = mostly about -30% to -49%; also: % is scaled to controls: 0 for no effect and ±100 for the full control effect
#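 THP-1 cells pretreated 1 hr with compounds (up to 57.5 uM final), then stimulated with LPS (250 ng/mL final) plus ATP (1.25 mM final); secreted IL-1B measured by AlphaLISA after 16 hr, decreased signal indicating inhibition.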
# MCF10A rereplic – DNA re-replication induction in MCF 10a cells; MCF 10A DNA re-replication, Hoechst nuclear intensity, 48 h; Potency, µM (series often up to 46.1 µM), for the others: top-dose activity, positive = re-replication, hits mostly activators; 350,000 tested, 2.9% active; AID 624296; also: potency is read from the fitted curve at half-maximal effect; % of control where 0% means no effect; nearly all actives have a fitted effect of over 50% in size
# HT1080NT lethal – kills 2HG-producing HT-1080-NT fibrosarcoma cells | AID 686970 | 360,000 tested, 1.6% active | Potency, µM (series often up to 46.1 µM), for the others: top-dose activity, negative = less viability, actives largely listed as cytotoxic | HT-1080-NT fibrosarcoma viability, CellTiter-Glo ATP luminescence, 48 h;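 also: NT is the 2HG producing partner of a matched IDH1 knockdown line; potency is read from the fitted curve at half-maximal effect; 0% = DMSO-treated cells and -100% = media-only wells without cells; nearly all actives have a fitted effect of over 55% in size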
#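 Fibrosarcoma NT cells, 750 per well in 5% FBS RPMI, were exposed to compound for 48 hours. Viability: CellTiter-Glo luminescence.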
# HT1080 IDH1KD tx – HT-1080 IDH1 knockdown cell toxicity (counter line); HT-1080 IDH1 knockdown viability, ATP luminescence, 48 h; Potency, µM (highest dose often 46.1 µM), for inactives: at the highest dose activity, negative = toxicity, actives largely listed as cytotoxic; 360,000 tested, 2% active; AID 686971;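 also: potency is read from the fitted curve at half-maximal effect; 0% = DMSO wells and -100% = cell-free medium wells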
#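 Viability of IDH1-knockdown HT-1080 fibrosarcoma cells was assessed by CellTiter-Glo after 48 h at 37 °C with titrated compound; concentration-effect curves were classified by fit quality and response size.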
# SW480 rereplic – inducers of DNA re-replication in SW480 colon cancer cells. SW480 DNA re-replication, Hoechst DNA content imaging, 48 h. Potency, µM (titrated, usually from 46.1 µM), without a hit: at the highest dose re-replication activation, actives largely listed as activators. 340,000 tested, 1.8% active; also: potency is read from the fitted curve at half-maximal effect; % of control where 0% means no effect; nearly all actives have a fitted effect of over 55% in size
#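 DNA re-replication was detected as more nuclei of elevated Hoechst intensity after 48 hr exposure to compound (23 nL pinned per well of 250 cells).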
# KB-3-1 cytotox – KB-3-1 parental cell cytotoxicity | KB-3-1 viability, CellTiter-Glo ATP luminescence, 72 h | Potency, µM (highest dose often 46.1 µM), inactives show top-dose activity change, negative = cytotoxic, hits mostly cytotoxic | 400,000 tested, 1.4% active | AID 1347075; also: potency is read from the fitted curve at half-maximal effect; % is scaled to controls: 0 for no effect and ±100 for the full control effect; nearly all actives have a fitted effect of over 60% in size
#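 Cells are dispensed, compounds pinned in, plates held at 37 °C for 72 h, then CellTiter-Glo is added and luminescence read after 10 minutes. Cell line: parental KB-3-1 in phenol-red-free DMEM, 10% FBS.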
# Starred values were filed as active, the others as inactive; ? = inconclusive; · = no result given; & = joins results of further samples; [ ] = another dose, or the depositor's remark. Unless noted, calls follow the shape of the dose curve; as a rule, active = well fitted curve in the direction sought with a large enough effect; inconclusive = small, poorly fitted or top-dose-only effect, or another doubt; inactive = no such curve, though single readings can be large; an effect the other way counts as inactive or inconclusive. Some of the compounds tested; count on the stated rates, not on these rows.
cpd	Compound	ATXN2 expr inh	KB-V1 MDR tox	IL1B secr inh	MCF10A rereplic	HT1080NT lethal	HT1080 IDH1KD tx	SW480 rereplic	KB-3-1 cytotox
1	CC(=O)OCC1=C(C(=O)O)N2C(=O)[C@@H](NC(=O)Cc3cccs3)[C@H]2SC1	-2%&8%	-9%	-1	3%&12%&0%	2%	2%	-12%&-4%&-8%	0%
2	CN(C)CCOCCOc1ccc(Cl)c2ccccc12	-33%	1%	-30	?	18µM*	21µM*	5%	?
3	CCOC(=O)N1CCN(C(=O)c2ccc3c(c2)NC(=O)/C(=C/c2ccccc2)S3)CC1	-19%	-6%	-17	?	-6%	-13%	?	-12%
4	CN1c2ccccc2Oc2c(c(=O)n(C)c(=O)n2C)C1c1cccc([N+](=O)[O-])c1 (stereo not drawn)	-7%	?	-15	0%	1%	1%	0%	3%
5	O=C(CN1CCN(C(=O)c2ccco2)CC1)Nc1c2c(nc3c1CCC3)CCCC2	1%	0%	-7	-1%	2%	6%	-2%	1%
6	CCCCOc1ccc(C(=O)NCCCC(=O)N2CCCCC2)cc1	-1%	?	15	13%	-11%	-29%	-2%	-17%
7	CN1CCN(C(=O)c2cnn3c2NC(c2ccccc2)CC3C(F)(F)F)CC1 (stereo not drawn)	-3%	?	3	?	6%	18%	-8%	20%
8	CCCCOc1ccc(C(=O)NN2CCOCC2)cc1	6%	15%	0	0%	-7%	-5%	0%	-1%
9	CC(=O)c1c(C)[nH]c(C(=O)N2c3ccccc3CC2C)c1C (stereo not drawn)	12%	0%	30	-1%	11%	-1%	-15%	-4%
10	O=C(Nc1ccc(N2CCOCC2)cc1N1CCOCC1)c1ncoc1-c1cccc(F)c1	-4%	-23%	?	24%	13%	20%	0%	7%
11	CC1=C(C(=O)Nc2ccccc2)C(c2ccncc2)n2nnnc2N1 (stereo not drawn)	18%	10%	-24	15%	-12%	-11%	-1%	1%
12	Cc1ccc2nc(Nc3ccccc3)c(C=O)c(=O)n2c1	10%	9%	-16	2%	14%	21%	-6%[9.22 µM]	-5%
13	COCCn1c(C)cc2c(c1=O)C(c1ccccc1F)C(C#N)=C(N)O2 (stereo not drawn)	13%	-24%	-11	-7%	17%	4%	-9%	17%
14	C[C@H](NC(=O)c1nc[nH]c1C(=O)NCC(=O)OC(C)(C)C)C(=O)OCc1ccccc1	1%	9%	50	-10%	9%	5%	-2%	10%
15	O=C(O)c1ccccc1-c1ccc(/C=c2\sc3nc4cc(Br)cnc4n3c2=O)o1	-1%	-5%	-3	-4%	5%	-1%	13%	-8%
16	CC(C)(C)NC(=O)CSc1nc(O)cc(=O)[nH]1	-2%	22%	-13	-5%	11%	11%	-1%	-6%
17	COc1ccc(/C=N/NC(=O)c2ccc(NS(=O)(=O)c3cccs3)cc2)cc1	17%	15%	-6	8%	0%	-4%	?	-5%
18	CCCN(CC)c1ncnc2[nH]ncc12	2%	?	-7	1%	0%	3%	-1%	-27%
19	COc1ccc(C2NC(c3ccc(OC)c(OC)c3OC)C(C)C(=O)C2C)c(OC)c1OC (stereo not drawn)	0%	0%	24	?	-3%	4%	0%	2%
20	CCN(CC)c1ccc(C(=O)OCc2cc(=O)oc3cc(O)ccc23)cc1	?	?	54	2%	?	?	0%[9.22 µM]	?
21	Cc1ccc(NC(=O)c2noc3c2CCC3)cc1C	-37%	2%	15	13%	15%	0%	?	3%
22	CC(NS(=O)(=O)c1ccc([N+](=O)[O-])cc1)C(=O)NN (stereo not drawn)	·	13%	0	1%	5%	-2%	-65%[inhibitor]	2%
23	Cc1c(Cc2c(C)n(C)n(-c3ccccc3)c2=O)c(=O)n(-c2ccccc2)n1C	2%	11%	0	-39%[inhibitor]	11%	10%	0%	-1%
24	O=C(NCc1ccccc1)c1ccc2nc(-c3ccco3)c(-c3ccco3)nc2c1	2%	6%	-29	?	-6%	-5%	16%	21%
25	CN(C)CCOc1ccccc1C(C)(C)C	-1%	-2%	-13	-3%	3%	3%	-7%	1%
26	O=C(O)c1cc(C(=O)O)cc(-c2ccc(/C=c3/sc4nc5ccccc5n4c3=O)o2)c1	4%	3%	-5	9%	2%	6%	?	-3%
27	CCOCCCn1c(=S)[nH]c2cc(C(=O)NCc3ccc(F)cc3)ccc2c1=O	-10%	16%	5	-1%	-1%	4%	?	11%
28	CCCCN1CCCCC1C(=O)Nc1c(C)cc(C)cc1C (stereo not drawn)	-4%	-4%	-13	-87%[0.0737 µM]	2%	19%	6%	-7%
29	CC1=C(C(=O)Nc2ccccc2)C(c2cccs2)n2nnnc2N1 (stereo not drawn)	-3%	20%	-5	-3%	3%	5%	8%	1%
30	C/C=C/C=C/C(=O)OCC(=O)Nc1ccc(Cl)cc1	-14%	1%	-3	0%	-13%	-11%	-10%	8%
31	CCCCn1c(SCC(=O)NCc2ccco2)nnc1-c1ccoc1C	-1%	-3%	?	-3%	-3%	-1%	-9%	-1%
32	Cc1ccc(CNC(=O)c2nnc(CS(=O)(=O)c3ccccc3)o2)cc1	3%	5%	?	-2%	3%	-3%	5%	-4%
33	Cn1c(SCC(=O)NCC2COc3ccccc3O2)nnc1C(F)(F)F (stereo not drawn)	1%	·	-5	5%	0%	0%	-1%	·
34	CCC1CCCCN1CCCNC(=O)CCCNC(=O)Cn1cnc2sc3c(c2c1=O)CCCC3 (stereo not drawn)	0%	?	-12	-15%	-6%	15%	-6%	-1%
35	CCn1c(C)cc2c(c1=O)C(c1ccncc1)C(C#N)=C(N)O2 (stereo not drawn)	-7%	23%	10	0%	1%	2%	-8%	9%
36	CCCCOc1ccc(C(=O)N2CCCC2)cc1	26%	-11%	-5	0%	11%	-2%	-1%	-19%
37	O=C(NC1CCOC1=O)OCc1ccccc1 (stereo not drawn)	·	13%	4	·	3%	-1%	·	3%
38	O=C(O)c1cccc(Nc2cc(Cl)c3nonc3c2[N+](=O)[O-])c1	·	16%	-4	-11%	-1%	0%	-69%[inhibitor]	5%
39	Cc1[nH]c2ccccc2c1C(=O)C(=O)N1CCCc2ccccc21	15%	?	30	?	-17%	?	?	-20%
40	Cn1c(CC(=O)NNC(=O)c2cncc(Br)c2)nc2ccccc21	11%	-2%	21	0%	-5%	6%	-3%	0%

# 3 of the entries above in order of the IL1B secr inh value, falling:
item	molecule	IL1B secr inh	SW480 rereplic
40	Cn1c(CC(=O)NNC(=O)c2cncc(Br)c2)nc2ccccc21	21	-3%
35	CCn1c(C)cc2c(c1=O)C(c1ccncc1)C(C#N)=C(N)O2 (stereo not drawn)	10	-8%
36	CCCCOc1ccc(C(=O)N2CCCC2)cc1	-5	-1%

# Next section:
cpd	Compound	ATXN2 expr inh	KB-V1 MDR tox	IL1B secr inh	MCF10A rereplic	HT1080NT lethal	HT1080 IDH1KD tx	SW480 rereplic	KB-3-1 cytotox
41	C=CCn1c(SCC(=O)Nc2c(C)nn(Cc3ccccc3)c2C)nnc1C(O)c1ccccc1 (stereo not drawn)	20%	6%	2	?	-12%	0%[9.24 µM]	1%	1%
42	Cc1ccc2c(nc3s/c(=C\c4ccc(-c5ccccc5C(=O)O)o4)c(=O)n32)c1C	·	4%	8	12%	-2%	1%	-1%	1%
43	CCCCCCCC(=O)N/N=C(/C)c1c(O)cc(C)oc1=O	-6%	-21%	2	11%	-10%	?	?	2%
44	COc1ccc(/C=C/C(=O)NC(=S)N2CCCC(C(N)=O)C2)cc1 (stereo not drawn)	-15%	0%	-23	13%	-4%	0%	-12%	-2%
45	COc1cccc(-c2cnc3c(NC=O)cc(-c4ccc(N5CCN(C)CC5)cc4)cn23)c1	?	12%	75	·	?	?	·	0%
46	COc1ccc(OC)c(-n2c(-c3cc(-c4ccccc4)n[nH]3)n[nH]c2=S)c1	-4%	13%	23	-3%	-3%	-1%	3%	-2%
47	Nc1c(Cl)cc(C2=NCCn3c2c2ccccc2[n+]3[O-])cc1Cl	23%	0%	11	-2%	1%	-5%	-18%	?
48	CCCS(=O)(=O)NC(=O)C1(C)CCCN(C(=O)c2ccc(OC)cc2)C1 (stereo not drawn)	8%	-4%	38	·	24%	15%	·	-4%
49	COCc1c(C(=O)NCCc2ccc(OC(F)F)cc2)oc2ccccc12	-22%	0%	-8	9%	-5%	-1%	8%	-17%
50	Cc1cc(NC(=O)CSc2nc3c(cc2C#N)CCC3)no1	39%[activator]	-14%	-26	?	7%	-8%	15µM*	-1%
51	COc1cc(Br)c(CC(=O)NNC(=O)c2ccc(F)cc2)cc1OC	1%	0%	5	0%	5%	0%	-3%	0%
52	C/[N+]([O-])=C/c1c(OCc2ccccc2)ccc2ccccc12	·	?	-11	0%	0%	-3%	?	0%
53	COc1ccccc1N1C(=O)C2C(C(=O)c3ccccc3)=NN(c3ccccc3OC)C2C1=O (stereo not drawn)	-14%	-3%	16	1%	6%	8%	-16%	?
54	CCOC(=O)Cc1csc(SCC(=O)Nc2sc3c(c2C(N)=O)CCC3)n1	4%	9%	28	-2%	7%	9%	-3%	-1%
55	Cc1nn(-c2ccccc2)c2[nH]c(=O)c(CNCCN3CCOCC3)cc12	7%	15%	9	0%	13%	14%	-17%	2%
56	C[C@H](NC(=O)c1nc[nH]c1C(=O)N[C@@H](C)C(=O)OC(C)(C)C)C(=O)OCc1ccccc1	3%	0%	27	?	8%	12%	-4%	3%
57	Cc1cc(C(=O)CCC(=O)NCc2ccccc2F)c(C)s1	28%	-1%	24	2%	4%	6%	-99%	-6%
58	CCOC(=O)N1CCN(C(=O)NC23CC4CC(CC(C4)C2)C3)CC1	2%	4%	7	-4%	-7%	-1%	5%	3%
59	Cc1cc2c(c(=O)n1CC1CCCO1)C(c1ccc3c(c1)OCO3)C(C#N)=C(N)O2 (stereo not drawn)	5%	12%	-11	-17%	5%	8%	-1%	12%
60	Cc1c(OC(C)C(=O)N2C[C@H]3C[C@@H](C2)c2cccc(=O)n2C3)ccc2c3c(c(=O)oc12)CCC3 (stereo partly drawn)	5%	-11%	-21	4%	1%	5%	-18%	-12%
61	CC(C)[C@H](Nc1ccc(S(=O)(=O)N2CCOCC2)cc1[N+](=O)[O-])C(=O)OCC(=O)N(C(C)C)C(C)C	-13%	?	8	?	3%	-2%	·	?

# From PubChem BioAssay
